Source: PubChem
2A firefly – Primary qHTS Assay for Foot and Mouth Disease Virus Antivirals against NCGC Sytravon and CBC Compound Libraries: Firefly Luciferase Signal | HEK cells with a luciferase reporter of 2A StopGo recoding | hit rate 0.23% among 120,000 | AID 1745856, 2022 | Potency, µM (highest dose often 57.5 µM), for inactives: at the highest dose signal change, negative = less light; active = well fitted falling curve with a large enough effect; inconclusive = small, poorly fitted or top-dose-only effect; inactive = no such curve, though single readings can be large or run the other way; note: nearly all actives have a fitted effect of over 60% in size; overnight with compound
2A Renilla – Primary qHTS Assay for Foot and Mouth Disease Virus Antivirals against NCGC Sytravon and CBC Compound Libraries: Renilla Luciferase Signal. HEK cells with a luciferase reporter of 2A StopGo recoding. Potency, µM (series often up to 57.5 µM), for the others: at the highest dose signal change, negative = less light. hit rate 0.32% among 120,000. AID 1745857, 2022; active means well fitted falling curve with a large enough effect; inconclusive means small, poorly fitted or top-dose-only effect; inactive means no such curve, though single readings can be large or run the other way; note: nearly all actives have a fitted effect of over 55% in size; overnight with compound
Active calls of the source: *; ? = inconclusive; & = joins results of further samples; [ ] = dose if it differs, or a comment. % is set by controls: 0 for no effect and ±100 for the full control effect; potency is the fitted concentration of half-maximal effect. Outcome played no part in choosing rows; overall some 0.55% were active at least once.

mol	2A firefly	2A Renilla
CSc1nc2n(n1)C(c1cccc(Cl)c1)C1=C(CCCC1=O)N2 (stereo not drawn)	20.9%	15.2%
Brc1ccccc1CNCc1ccc(Cn2cncn2)cc1	0.1%	-18.8%
CCN1CCc2nc3sc(C(=O)c4ccc(F)cc4)c(N)c3cc2C1	48.6%&16.8%[activator]	6.0%&-4.6%
CC(C)OC(=O)c1ccc(Cl)c(N)c1	69.2%[activator]	12.8%
Cc1ccc(-n2c(=O)c3ccc(C(=O)NCc4ccccc4Cl)cc3n(CC(=O)Nc3cccc(F)c3)c2=O)cc1	-4.9%	73.8%[activator]
COCCNC(=S)N/N=C/c1c(OC)cc(OC)cc1OC	4.1%	12.1%
Cc1ccc(-c2nc(CN3CCCC3c3cccs3)co2)cc1 (stereo not drawn)	61.9%[activator]	13.8%
O=C(NC(C1CC1)C1CC1)c1cncc(Br)c1	7.2%	8.1%
CCC(C)NC(=O)Cn1c(=O)n(CC2CCC(C(=O)NC)CC2)c(=O)c2sccc21 (stereo not drawn)	-7.3%	-0.2%
CCn1c(/C=C/c2c[nH]c3ccccc23)nc2ccccc2c1=O	107.4%[activator]	-2.6%
CCc1ccc(NC(=O)CC(c2ccc(C)cc2)N2Cc3ccccc3C2=O)cc1 (stereo not drawn)	3.5%	33.9%[activator]
CCc1ccc(CNC(=O)c2sc3nc(C)nc(N4CCCC4)c3c2C)cc1	9.6%	13.2%
CCc1ccccc1NC(=O)CSc1nc2c(oc3ccccc32)c(=O)n1-c1ccccc1F	-7.0%	-11.4%
O=C(O)c1ccc(OCc2nnnn2-c2ccc(Br)cc2)cc1	-3.2%	-6.6%
COc1ccccc1NC(=O)c1sc2nc(-c3cc4cc(Cl)ccc4oc3=O)[nH]c(=O)c2c1C	-10.5%	-4.9%
COc1cc(Cl)c(C)cc1NC(=O)c1sc2nc(C)cc(C)c2c1N	-12.5%	-5.6%
CC1=C(C(=O)OC(C)(C)C)C(c2cccc(Cl)c2)NC(=O)N1 (stereo not drawn)	?	?
CS(=O)(=O)NC(=O)c1ccc(Br)cc1F	0.0%	-0.8%
Cc1cccn2c(Nc3ccc4c(c3)OCCO4)c(-c3ccc(Br)o3)nc12	111.4%[activator]	11.1%
Cc1ccn2cc(CNC(=O)Cc3cn(C)c4ccccc34)nc2c1	-1.6%	-1.0%
CCOc1ccc(NS(=O)(=O)c2ccc3c4c(cccc24)C(=O)N3)cc1	-18.0%	-8.2%
CONC(=O)Cn1c2ccccc2c(=O)c2ccccc21	18.3%	0.0%
Cc1cc2oc(C(=O)NCC(c3cccs3)N(C)C)cc(=O)c2cc1C (stereo not drawn)	-0.3%	12.5%
COc1cc(/C=C/c2nc(C#N)c(NCCCn3ccnc3)o2)cc(OC)c1OC	30.0%	28.0%
CC(C)CC(=O)Nc1cc(C(C)(C)C)ccc1O	-6.0%	148.5%[activator]

mol	2A firefly	2A Renilla
COc1ccc(S(=O)Cc2ccc(C(=O)NCc3cccc(OC)c3OC)o2)cc1 (stereo not drawn)	-1.7%	-13.4%
CCN(c1ccc(C)cc1C)S(=O)(=O)c1nnc(NC(=O)CC(C)C)s1	-23.6%	-10.6%
CCc1noc(-c2ccc(NCc3ccccc3)c([N+](=O)[O-])c2)n1	134.0%[activator]	1.4%
COc1ccc(-c2c(C)noc2-c2ccc(O)cc2O)cc1OC	4.8%	30.8%
Cc1ccc(-n2nnnc2SCC(=O)N2CCN(CC(=O)N3CCCC3)CC2)cc1	14.2%	2.7%
Cc1ccc(-n2nnnc2SCc2nc(N)c3ccccc3n2)cc1	-17.7%	?
CC(=O)Nc1ccc(NC(=O)Nc2sc3nc4n(c(=O)c3c2C)CCC(C)CC4)cc1 (stereo not drawn)	-8.1%	-8.0%
CCOC(=O)c1cn(CC)nc1S(=O)(=O)N1CCOCC1	-4.2%	-14.0%
O=C(CSc1nnnn1-c1ccccc1C(F)(F)F)Nc1ccc2nccnc2c1	8.1%	1.9%
CCOC(=O)c1c(Oc2ccc(C(C)=O)cc2)nnc(-c2ccccc2)c1-c1ccccc1	-3.6%	17.8%
O=C(NCc1ccccc1)c1ccccc1Nc1ccccc1	20.1%	95.3%[activator]
CCCCC(=O)Nc1sccc1C#N	0.0%	35.2%[activator]
COC(=O)COc1cccc(N)c1	-4.3%	1.2%
CCC(=O)Nc1ccc2c(c1)nc(CCn1ccnc1C)n2C	-2.0%	-11.6%
COc1ccc(C)cc1NC(=O)CSc1nc(=O)n(Cc2ccncc2)c2c1CCC2	0.0%	51.9%[activator]
O=C(N/N=C/c1cccs1)c1cccc(Cl)c1	29.3%	6.9%
CCn1cc2c(C(F)(F)F)cc(=O)n(CCC(=O)O)c2n1	-8.0%	-8.5%
Cc1c(OCCC(C)C)ccc2c(C(F)(F)F)cc(=O)oc12	-7.7%	5.5%
COc1ccc2nc3sc(C(=O)O)cc3cc2c1	0.0%	-0.1%
CCCN1CCc2nc(N3CCN(CC)CC3)ncc2C1	-17.9%	-17.5%
N#Cc1cccc(NC(=O)C2CCN(S(=O)(=O)c3ccc4c(c3)CCCN4C(=O)C3CCC3)CC2)c1	-23.1%	-0.6%
O=C(c1cc2ccccc2oc1=O)N1CCSC1c1cccc(Cl)c1 (stereo not drawn)	15.1%	2.8%
COc1ccccc1Nc1nn2c(=O)c3ccc(C(=O)N4CCCC(C)C4)cc3nc2s1 (stereo not drawn)	-19.9%	14.8%
COc1ccccc1NCC(=O)NC(C)(C#N)C(C)C (stereo not drawn)	-6.1%	-9.4%
Cc1ccc(C)c(NC(=O)N2CC=C(c3c[nH]c4ccccc34)CC2)c1	82.6%[activator]	-6.8%

Five compounds picked at random from those above:
mol	2A firefly	2A Renilla
Cc1ccc(C)c(NC(=O)N2CC=C(c3c[nH]c4ccccc34)CC2)c1	82.6%[activator]	-6.8%
CCc1ccccc1NC(=O)CSc1nc2c(oc3ccccc32)c(=O)n1-c1ccccc1F	-7.0%	-11.4%
O=C(NCc1ccccc1)c1ccccc1Nc1ccccc1	20.1%	95.3%[activator]
CCC(=O)Nc1ccc2c(c1)nc(CCn1ccnc1C)n2C	-2.0%	-11.6%
COc1cc(Cl)c(C)cc1NC(=O)c1sc2nc(C)cc(C)c2c1N	-12.5%	-5.6%

A different layout for some results above.
Values run as follows: 2A firefly	2A Renilla
CCOc1ccc(NS(=O)(=O)c2ccc3c4c(cccc24)C(=O)N3)cc1
→ -18.0%	-8.2%
Cc1cc2oc(C(=O)NCC(c3cccs3)N(C)C)cc(=O)c2cc1C (stereo not drawn)
→ -0.3%	12.5%
O=C(O)c1ccc(OCc2nnnn2-c2ccc(Br)cc2)cc1
→ -3.2%	-6.6%
Cc1ccc(-n2c(=O)c3ccc(C(=O)NCc4ccccc4Cl)cc3n(CC(=O)Nc3cccc(F)c3)c2=O)cc1
→ -4.9%	73.8%[activator]
CCC(=O)Nc1ccc2c(c1)nc(CCn1ccnc1C)n2C
→ -2.0%	-11.6%
O=C(N/N=C/c1cccs1)c1cccc(Cl)c1
→ 29.3%	6.9%

Next structures follow:
SMILES: COc1ccc(-c2cc(C(=O)N3CCCCC3C)no2)cc1OC (stereo not drawn)
  2A firefly = 46.9%[activator]	2A Renilla = 104.8%[activator]
SMILES: CCOc1ccc(S(=O)(=O)N2CCC(N3CCN(Cc4ccc(C)cc4)C(=O)C3=O)CC2)cc1
  2A firefly = -13.7%	2A Renilla = -2.6%
SMILES: CCc1ccc(CN(C(=O)c2nc(S(C)(=O)=O)ncc2Cl)C2CCS(=O)(=O)C2)cc1 (stereo not drawn)
  2A firefly = ?	2A Renilla = ?
SMILES: COc1ccc(C)cc1NC(=O)Cc1c(C(=O)O)c(C)cn1C
  2A firefly = -14.6%	2A Renilla = -4.3%
SMILES: CC(Sc1nc2ccccc2[nH]1)C(=O)NC(=O)NC(C)(C)C (stereo not drawn)
  2A firefly = 13.7%	2A Renilla = 0.8%
SMILES: O=C(CN(Cc1ccc(F)cc1)S(=O)(=O)c1ccc(Cl)cc1)NCCO
  2A firefly = -14.7%	2A Renilla = -10.3%
SMILES: CCn1nc(C(=O)Nc2cc(Cl)c(N)c(Cl)c2)c2ccccc2c1=O
  2A firefly = -2.2%	2A Renilla = -4.4%
SMILES: CCc1ccc2ncc(S(=O)(=O)c3ccc(C)c(C)c3)c(N3CCOCC3)c2c1
  2A firefly = -2.4%	2A Renilla = 43.0%[activator]
SMILES: COc1ccc(CCNC(=O)c2c[nH]n3c(=O)c(Cc4ccccc4Cl)c(C)nc23)cc1OC
  2A firefly = 21.3%	2A Renilla = 12.5%
SMILES: Cc1cccc(NC(=O)CNC(=O)Cn2c(=O)n(C)c3ccccc32)c1C
  2A firefly = -8.5%	2A Renilla = 3.7%
SMILES: Oc1ccc(Nc2nc3ccccc3n3cnnc23)cc1
  2A firefly = 48.9%[activator]	2A Renilla = 70.1%[activator]
SMILES: COc1cccc(-c2nc(SCc3cc(=O)c4cc(C)c(C)cc4[nH]3)n[nH]2)c1
  2A firefly = 24.4%	2A Renilla = -4.7%
SMILES: CCC(C)Sc1c(C)cnc2c1c(=O)n(C)c(=O)n2C (stereo not drawn)
  2A firefly = 16.4%	2A Renilla = 5.7%
SMILES: O=C(Nc1ccc(Cl)cc1)C1CCN(c2nc3ccccc3nc2C(F)(F)F)CC1
  2A firefly = -24.9%	2A Renilla = -21.2%
SMILES: O=C(CSc1nnc2c3c4c(sc3ncn12)CCCC4)Nc1ccc(F)cc1F
  2A firefly = -0.8%	2A Renilla = -8.1%
SMILES: CC(C)Oc1ccc(CNC(=O)c2cnc3sc(N4CCCCC4)nn3c2=O)cc1
  2A firefly = -7.3%	2A Renilla = 1.9%
SMILES: O=C(CSc1nnc(-c2ccncc2)n1-c1ccc(F)cc1)NCc1ccc2c(c1)OCO2
  2A firefly = 1.0%	2A Renilla = 0.1%
SMILES: CCc1nc2ccccc2c(C(=O)OCc2ccccc2)c1C
  2A firefly = 28.9%	2A Renilla = -7.2%[1.06 µM]
SMILES: S=C(NCCC(c1ccccc1)c1ccccc1)Nc1ccc(Cl)cc1Cl
  2A firefly = 14.5%	2A Renilla = 222.0%[activator]
SMILES: Cc1ccc(N2C(=O)NC(NS(=O)(=O)c3ccccc3)(C(F)(F)F)C2=O)cc1C (stereo not drawn)
  2A firefly = -17.4%	2A Renilla = -9.8%
SMILES: COc1ccc(NC(=O)Nc2c(NC3CCCCC3)c3ccccc3oc2=O)cc1
  2A firefly = -5.0%	2A Renilla = 2.6%
SMILES: CCC(=O)N1CCc2cc(Br)cc(S(=O)(=O)N3CCC(C(=O)Nc4ccccc4F)CC3)c21
  2A firefly = -5.6%	2A Renilla = 8.8%
SMILES: Cc1ccc(CCNC(=O)c2ccc3[nH]c(C)c(C)c3c2)cc1
  2A firefly = 89.0%[activator]	2A Renilla = 102.4%[activator]
SMILES: Cc1cc(OC(C)C(=O)NCCCn2ccnc2)c2c(C)c(C)c(=O)oc2c1 (stereo not drawn)
  2A firefly = 16.0%	2A Renilla = 45.2%[activator]
SMILES: c1cncc(-c2ccc3n2Cc2cnnn2-c2ccccc2-3)c1
  2A firefly = -1.3%	2A Renilla = 7.5%

SMILES: Cc1ccc(S(=O)(=O)Cc2nc(-c3ccc(C(=O)NCCCOC(C)C)cc3)oc2C)cc1
  2A firefly = -13.9%	2A Renilla = -7.1%
SMILES: Cc1cccc(Cn2c(CNC(=O)c3ccccc3)nc3ccccc32)c1
  2A firefly = -9.5%	2A Renilla = 64.1%[activator]
SMILES: CCC(Sc1nc2cc(OC)c(OC)cc2c(=O)n1Cc1ccc(OC)cc1)C(=O)NCCOC (stereo not drawn)
  2A firefly = -7.9%	2A Renilla = 0.1%
SMILES: O=C(CN1CCN(c2cnn(-c3ccccc3)c(=O)c2Cl)CC1)Nc1ccc2ccccc2c1
  2A firefly = ?	2A Renilla = ?
SMILES: CC(C)c1ccc(NC(=O)Cn2nnc(C(=O)NCc3ccc4c(c3)OCO4)c2N)cc1
  2A firefly = -10.4%	2A Renilla = -11.3%
SMILES: Cc1oc(-c2ccccc2)nc1CC(=O)Nc1cccc(C(=O)Nc2ccncc2)c1
  2A firefly = ?	2A Renilla = ?
SMILES: CC(NC(=O)CSc1nnc(C2CC2)n1C1CC1)c1ccc2c(c1)CCCC2 (stereo not drawn)
  2A firefly = -7.2%	2A Renilla = -1.5%
SMILES: COc1ccc(CNC(=O)C(C)N2Cc3ccccc3C2=O)cc1 (stereo not drawn)
  2A firefly = -12.5%	2A Renilla = -8.8%
SMILES: O=C(COc1ccc(F)cc1)NCc1ccc2c(c1)CCN2C(=O)c1ccc(F)cc1
  2A firefly = -16.8%	2A Renilla = -7.2%
SMILES: O=C(NCCc1ccccc1F)c1cc2ccccc2[nH]1
  2A firefly = 0.0%	2A Renilla = 11.0%
SMILES: COC(=O)c1ccc(NC2=C(C(N)=O)S(=O)(=O)c3ccccc32)cc1
  2A firefly = 11.5%	2A Renilla = -3.2%
SMILES: O=C(O)C(c1c[nH]c2ccc(CO)cc12)N1CCCN(c2ccc(C(F)(F)F)cn2)CC1 (stereo not drawn)
  2A firefly = -2.9%	2A Renilla = -8.8%
SMILES: C/C(=N\NC(=O)c1ccc(C)c(C)c1)c1ccc(C)cc1C
  2A firefly = 57.0%[activator]	2A Renilla = -4.7%
